Assay outcomes (PubChem BioAssay)
Bfl-1 A1 inh: inhibitors of the anti-apoptotic protein A1, read as caspase activation | MEF A1-2A-BIM cells, Caspase-Glo 3/7 luminescence, 3 h; percent of clofoctol response, vehicle zero | caspase activation, % (concentration not given with the values) | AID 2462 | 330,000 compounds, 0.066% hits;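 active = over half of replicate activation scores above 10%, or exactly half above 10 with the replicate mean above 10; inconclusive = replicate mean below 10 yet half the replicates above 10; inactive = over half of replicates below 10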;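 note: wells of about 30 µL received 50 nL stock; many hits fall short of the cut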
LANA-H2B inh: blocks KSHV LANA binding to histone H2A/H2B | Q9QR71 | cell-free LANA-H2A/H2B peptide, fluorescence polarization | inhibition, % (no concentration beside the values) | 320,000 compounds, 0.6% hits | AID 2629; in the data active = inhibition mostly above about 10%, no sharp cut-off; inactive = mostly below about 6.7%;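 note: stock transfer was 7.5 nL into about 10 µL; 0% = median of vehicle wells and 100% = median of positive control wells; one replicate is shown; the record names a cut of 25% in any replicate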
Calb FLC: affects C. albicans growth with fluconazole; C. albicans CaCi-2 (fluconazole-resistant clinical isolate) + fluconazole, Alamar Blue growth, 48 h; growth inhibition, % (no concentration beside the values); 300,000 compounds, 0.57% hits;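 active = most replicates above 75%; inconclusive = exactly half above 75%; inactive = most below 75%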;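 note: all wells also contain fluconazole at 8 µg/ml as a sub-toxic cotreatment; 0% = median of DMSO wells and 100% = median of geldanamycin control wells; wells of about 8 µL received 7.5 nL stock; the first replicate is given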
T cruzi inh: T. cruzi replication inhibition. T. cruzi beta-gal in NIH3T3, luminescence, 90 h. inhibition, % (no concentration beside the values). 300,000 compounds, 1.4% hits;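 active = mean inhibition across valid replicates above about 55%, limit read from the data; inconclusive = mean below that limit but half or more replicates reach it; inactive = mean below it, under half of replicates reach it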;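 note: signal also drops with host cell toxicity which is not excluded here; 0% = plate median of DMSO wells and 100% = zero luminescence signal; higher percent means less beta-gal luminescence so fewer parasites; stock transfer was 50 nL into about 50 µL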
Beta apoptosis: beta cell apoptosis inhibition | protection from apoptosis, % (no concentration beside the values) | 300,000 compounds, 0.8% hits | INS-1E cytokine-induced death, ATP luminescence, 48 h; percent of positive-control rescue, neutral wells zero;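 active = all replicates at 75% or more, or half of them and the mean; inconclusive = half reach 75% but not the mean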;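 note: 0% = cytokine-treated negative control wells and 100% = positive control rescue; higher means more ATP so stronger rescue from cytokine killing; wells of about 40 µL received 100 nL stock; the first replicate is given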
B2AR ag: agonists of human beta-2 adrenergic receptor inducing internalization. response, % (no concentration beside the values). 340,000 compounds, 0.43% hits. Am2.2-beta2AR cells, FAP receptor internalization, flow cytometry; reference of the scale not given here. P07550;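 active = response above a set limit, near 3 SD of response in nonfluorescent compounds, cut at about 42% in these data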;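 note: stock transfer was 100 nL into about 11 µL; a reference agonist was the positive control; negative values mostly stem from fluorescent compounds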
Target sequence (P07550 whole entry, looked up): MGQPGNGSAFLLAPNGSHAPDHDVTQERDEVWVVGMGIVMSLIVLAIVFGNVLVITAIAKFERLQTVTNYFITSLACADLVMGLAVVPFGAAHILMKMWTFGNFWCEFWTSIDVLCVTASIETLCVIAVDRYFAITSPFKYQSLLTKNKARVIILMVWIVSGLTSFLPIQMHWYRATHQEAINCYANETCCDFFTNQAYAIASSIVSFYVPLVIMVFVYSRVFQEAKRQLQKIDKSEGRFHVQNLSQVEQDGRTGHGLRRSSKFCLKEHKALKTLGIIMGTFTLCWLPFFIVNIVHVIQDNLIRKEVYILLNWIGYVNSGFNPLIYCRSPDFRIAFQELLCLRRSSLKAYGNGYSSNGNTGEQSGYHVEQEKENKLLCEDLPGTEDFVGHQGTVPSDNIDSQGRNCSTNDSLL
UCH37 DUB inh: inhibitors of human deubiquitinating enzyme UCH37; Q9Y5K5; purified proteasome/UCH37, Ub-AMC cleavage fluorescence; inhibition, % (concentration not given with the values); 330,000 compounds, 0.33% hits;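 active = mean of two replicates above 20%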;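 note: 0% = compound-free wells with enzyme and 100% = wells lacking proteasome; stock transfer was 100 nL into about 20 µL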
Target sequence (Q9Y5K5 whole entry, looked up): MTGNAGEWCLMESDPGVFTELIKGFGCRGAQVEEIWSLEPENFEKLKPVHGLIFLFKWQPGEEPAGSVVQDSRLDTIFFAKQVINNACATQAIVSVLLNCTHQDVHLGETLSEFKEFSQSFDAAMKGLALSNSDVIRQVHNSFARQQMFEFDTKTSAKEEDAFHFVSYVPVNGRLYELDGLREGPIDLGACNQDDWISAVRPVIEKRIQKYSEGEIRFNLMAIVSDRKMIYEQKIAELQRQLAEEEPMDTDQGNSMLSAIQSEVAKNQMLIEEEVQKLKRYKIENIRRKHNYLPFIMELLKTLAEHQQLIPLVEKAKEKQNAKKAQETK
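Assay system: Proteasome-bound UCH37. Buffer or medium: pH 7.4 Tris-HCl (50 mM) with ovalbumin, ATP-MgCl2, DTT. Incubation: 30 min preincubation with enzyme, 25 min cleavage at room temperature. Measured by: fluorescence, ex 355 nm, em 460 nm. Read-out basis: percent inhibition. Control set: wells without proteasome as full block, compound-free enzyme plus substrate as uninhibited.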
RanGTP-Imp inh: inhibitors of RanGTP-importin-beta interaction, primary screen, biochemical, FRET, CFP-Ran, YFP-importin-beta, homogeneous; cell-free CFP-Ran/YFP-importin-beta FRET ratio; inhibition, % (concentration not given with the values); 300,000 compounds, 1.1% hits;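 active = most replicates above 15%; inconclusive = exactly half above 15%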;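 note: 0% = DMSO wells and 100% = Ran loaded with GDP instead of GTP; wells of about 40 µL received 100 nL stock; the first replicate is given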
Starred values were filed as active, the others as inactive; i = inactive; u = inconclusive; x = no result given. Only part of the results is shown, so the mix of outcomes need not match the whole.

SMILES	Bfl-1 A1 inh	LANA-H2B inh	Calb FLC	T cruzi inh	Beta apoptosis	B2AR ag	UCH37 DUB inh	RanGTP-Imp inh
COc1cc2c(cc1OC)[C@H]1C(=O)c3ccc4c(c3O[C@H]1CO2)C[C@@H](C(C)(C)O)O4	u	-0.3	x	x	-13	3	2.8	x
O=C1NC(=O)N(c2ccccc2)C(=O)/C1=C/c1coc2ccc(O)cc2c1=O	-0.8	4.5	1	10	-6	14	4.1	-0.3
O=C1C=C2C=C[C@@H]3CC2(O1)[C@H]1CCCCN31	0.2	-2.4	x	x	x	2	2.2	x
Nc1cc2nc3ccccc3nc2cc1N	0.8	-1.3	-7	11	1	7	7.2	-2.1
C=CCN1C(=O)NC(=O)/C(=C/c2c(CCN(C)C(=O)c3ccccc3)cc3c(c2OC)OCO3)C1=O	-0.7	-0.8	19	-1	1	10	1.5	2.8
NC(N)=N/N=C/c1cn(-c2ccccc2)nc1-c1cccs1	-0.4	-5.1	8	46	105*	22	x	4.9
COC(=O)C1=CO[C@@H](C)[C@H]2CN3CC[C@]4(C(=O)Nc5ccccc54)[C@@H]3C[C@H]12	-0.6	3.8	7	6	-3	-6	3.9	u
O=P(NS(=O)(=O)c1ccccc1)(Oc1ccccc1)Oc1ccccc1	-0.2	-3.5	-11	-16	-5	-6	-1.1	2.5
Cc1ccc(OCC(=O)N2CCN(Cc3cccnc3)CC2)cc1	0.6	0.5	-5	9	-1	-9	-0.8	4.1
C=CCn1c(O)c(C(C)=Nc2ccc(N(C)C)cc2)c(=O)[nH]c1=O	1.2	5.1	-58	4	-3	1	4.6	-4.1
Fc1cccc(CCNCc2ccccn2)c1	-0.8	-0.8	1	-9	1	2	1.8	-3.0
CC(Oc1ccc(-c2ccccc2)cc1)C(=O)O (configuration not stated)	-0.6	2.1	-2	-17	-2	1	0.6	-3.6
CCn1nc(-c2ccccc2)nc2c(=O)n(C)c(=O)nc1-2	0.0	13	90*	22	108*	69*	99*	-30
CSc1ccc(C(=O)C2CCCN(Cc3cnc(SC)nc3)C2)cc1 (configuration not stated)	-0.1	-0.1	-34	4	5	-7	2.4	1.6
COc1ccc(C2c3c(nc(C)[nH]c3=O)Oc3c2c(=O)oc2ccccc32)cc1 (configuration not stated)	-0.4	6.3	25	-5	-1	x	2.3	-0.2
COc1ccc(-c2c[n+](CC(=O)c3cccs3)c3n2CCC3)cc1	-0.5	0.5	1	0	x	7	3.2	10
Nc1c2c(nc3sc4c(c13)CCCC4)CCCCC2	0.6	-1.2	7	-1	4	2	1.6	-4.3
CCc1cc(=O)oc2cc(OCC(=O)N3C[C@H]4C[C@@H](C3)c3cccc(=O)n3C4)ccc12	-0.9	0.7	-1	-6	-8	0	-1.9	1.1
COc1ccc(-c2nn(CCC#N)cc2C(=O)Nc2ccc(C(C)=O)cc2)cc1[N+](=O)[O-]	-0.5	-2.8	30	1	4	-6	2.9	2.8
CC(C)Cc1nnc(NC(=O)CCC(=O)N2CCC3(CC2)OCCO3)s1	0.3	5.1	-7	-5	x	-2	x	-1.0
COC(=O)C(O)(c1ccc(NC(=S)NC(=O)c2ccccc2)cc1)C(F)(F)F (configuration not stated)	-0.9	4.6	14	10	3	4	1.8	-2.1
CN(C)P(=O)(NC(=O)c1cccn1C)N(C)C	0.6	-5.2	-9	-10	-6	i	0.1	0.4
CC1(C)CC(=O)C2=C(C1)NC(=O)C21C(C(=O)OC(C)(C)C)=C(N)Oc2ccc(Br)cc21 (configuration not stated)	-0.2	-3.2	10	-5	0	5	3.8	3.8
COc1ccc(CNC(=O)C(NC(C)=O)C(C)C)cc1OC (configuration not stated)	0.3	-4.4	-1	-3	-10	1	2.1	4.2
CC1=N/C(=C\c2ccc([N+](=O)[O-])cc2)C(=O)N1c1ccc(Cl)cc1	0.0	0.2	-1	8	3	-6	7.1	-4.7

Quoted at random: 2 records from the list.
SMILES	Bfl-1 A1 inh	LANA-H2B inh	Calb FLC	T cruzi inh	Beta apoptosis	B2AR ag	UCH37 DUB inh	RanGTP-Imp inh
Fc1cccc(CCNCc2ccccn2)c1	-0.8	-0.8	1	-9	1	2	1.8	-3.0
CC(C)Cc1nnc(NC(=O)CCC(=O)N2CCC3(CC2)OCCO3)s1	0.3	5.1	-7	-5	x	-2	x	-1.0

3 compounds from above, ordered by molar mass, low to high:
SMILES	Bfl-1 A1 inh	LANA-H2B inh	Calb FLC	T cruzi inh	Beta apoptosis	B2AR ag	UCH37 DUB inh	RanGTP-Imp inh
COc1ccc(CNC(=O)C(NC(C)=O)C(C)C)cc1OC (configuration not stated)	0.3	-4.4	-1	-3	-10	1	2.1	4.2
Cc1ccc(OCC(=O)N2CCN(Cc3cccnc3)CC2)cc1	0.6	0.5	-5	9	-1	-9	-0.8	4.1
C=CCn1c(O)c(C(C)=Nc2ccc(N(C)C)cc2)c(=O)[nH]c1=O	1.2	5.1	-58	4	-3	1	4.6	-4.1

Following part:
SMILES	Bfl-1 A1 inh	LANA-H2B inh	Calb FLC	T cruzi inh	Beta apoptosis	B2AR ag	UCH37 DUB inh	RanGTP-Imp inh
CC1(C)CC(=O)C(C2(O)C(=O)NC(=O)NC2=O)=C(O)C1	0.0	3.1	-10	-17	5	4	15	u
CN1C(=O)N(C)C(=O)C2(Cc3c(nc4ccccn4c3=O)N3CCc4ccccc4C32)C1=O (configuration not stated)	-0.9	1.9	8	8	0	-2	-4.9	-1.7
C[N+]1(C)CCN(c2ccccc2)CC1	-0.1	-2.1	-4	-5	x	-4	5.8	-4.4
c1cc2c(cc1CCNC1CCCCCC1)OCO2	-0.5	1.6	1	7	-2	-4	-1.5	1.4
CC(C)CN1CCN(Cc2ccc(C(F)(F)F)cc2)CC1CCO (configuration not stated)	-0.1	-14	-30	10	0	5	3.4	-0.4
C=CCc1cc(OC)c2c(c1)OCO2	0.9	5.5	x	x	x	5	1.6	x
Cc1ccc2c(c1)C1CN(C)CCC1N2C(=O)/C=C/c1ccc2c(c1)OCO2 (configuration not stated)	-0.4	-4.9	18	42	-15	0	15	-0.6
CN1C(=O)C(=Cc2ccc(OCC(=O)Nc3ccccc3)cc2)C(=O)N(C)C1=O	-1.8	2.6	-2	10	-6	4	2.5	7.4
COc1cccc(CN2CCNCC2)c1	-0.2	4.3	4	-9	-3	4	x	2.8
CC(=O)Nc1ccc(CC(=O)N2CCN(Cc3ccccc3)CC2)cc1	0.3	-3.2	-10	-7	-2	5	-3.0	0.6
COc1ccc(N=C2SCCCN2C)cc1	-0.8	-3.6	7	-11	-2	-6	2.2	-2.0
CCc1cc(=O)[nH]c(SCCCF)n1	0.2	0.9	-2	-12	4	-1	-0.8	u
CN(C)CC1CSCCC1(O)c1ccccc1 (configuration not stated)	-0.1	-2.3	-3	1	-3	4	0.8	-4.0
CSc1nnc(C2CCNCC2)n1C	-0.8	5.1	5	5	-9	3	-1.0	2.3
CC(=NCc1ccco1)c1c(O)n(-c2ccc(C)cc2)c(=O)[nH]c1=O	1.2	-8.4	-4	1	-1	-2	-0.2	7.8
C=CCn1c(O)c(C(CC)=NCC2CCCO2)c(=O)[nH]c1=O (configuration not stated)	0.1	9.7	10	-4	1	-3	-1.2	4.9
O=S(=O)(NC1CCCCC1)OCC(Cl)(Cl)Cl	0.3	0.2	-13	-10	-1	-3	0.1	-3.3
CCN1C[C@@]2(COC)C3[C@@H](OC)[C@H]4[C@@H]1[C@@]3(C1C[C@@]3(O)[C@H](OC(=O)c5ccccc5)C1[C@]4(OC(C)=O)[C@@H](O)[C@H]3OC)[C@@H](OC)C[C@H]2O (some centres not stated)	0.1	-3.9	x	-20	5	x	2.1	-0.1
Cc1ccc(OCC(=O)N2CCN(Cc3ccc([N+](=O)[O-])cc3)CC2)cc1	1.4	3.8	-3	23	1	0	1.9	0.2
COc1ccc(N=Cc2c(O)n(Cc3cccs3)c(=O)[nH]c2=O)cc1	-1.1	-1.5	2	-17	6	8	-76	-1.2
O=C(CCN1CCOCC1)Nc1ccc(Br)cc1C(=O)c1ccccc1	-0.3	-6.6	16	5	x	3	2.7	-0.7
N#CC(C#N)=Cc1ccc(N2CCCC2)cc1	-0.2	0.6	22	-24	-3	2	5.0	17
CCCCOC(=O)C1=C(N)OC2=C(C(=O)CC(C)(C)C2)[C@]12C(=O)N(C)c1ccccc12	1.4	-8.4	2	1	-4	0	4.5	4.2
CN(C)C(=O)Oc1cc(=O)n2c3c(cccc13)CCC2	0.3	3.8	13	13	-6	-18	-6.3	4.7
O=C(COC(=O)Cc1ccccc1)Nc1ccc(Cl)cn1	0.3	0.2	-5	-11	-7	2	-0.6	5.8
Cn1c(O)c(/C=C/C=Nc2ccccc2)c(=O)n(C)c1=O	-0.5	-4.7	0	8	-4	-15	7.9	33*
C=C(C)[C@@H]1C2C(=O)O[C@H]1[C@H]1OC(=O)[C@@]34OC3C[C@]2(O)[C@@]14C (some centres not stated)	0.6	-1.5	x	x	-1	-4	-4.6	x
CC(=O)NCCc1c[nH]c2ccccc12	-0.7	4.2	-4	-5	x	7	1.3	-6.5
Cc1ccc(S(=O)(=O)N2CC2(C)CCl)cc1 (configuration not stated)	0.1	1.0	-3	-4	-19	5	3.9	-4.1
CCCN1CCC(NC2CCC(O)CC2)CC1 (configuration not stated)	-0.6	-0.5	-12	-6	-5	-3	0.8	-0.5

Single records, from the list above. Order of screens: Bfl-1 A1 inh | LANA-H2B inh | Calb FLC | T cruzi inh | Beta apoptosis | B2AR ag | UCH37 DUB inh | RanGTP-Imp inh
Cn1c(O)c(/C=C/C=Nc2ccccc2)c(=O)n(C)c1=O is listed as -0.5 | -4.7 | 0 | 8 | -4 | -15 | 7.9 | 33*
O=C(CCN1CCOCC1)Nc1ccc(Br)cc1C(=O)c1ccccc1 is listed as -0.3 | -6.6 | 16 | 5 | x | 3 | 2.7 | -0.7
C=CCn1c(O)c(C(CC)=NCC2CCCO2)c(=O)[nH]c1=O (configuration not stated) is listed as 0.1 | 9.7 | 10 | -4 | 1 | -3 | -1.2 | 4.9
